Screening data: PubChem, National Center for Advancing Translational Sciences (NCATS)
VDR inhibitor: blocks the human vitamin D receptor; P11473; VDR-SRC2-3 peptide fluorescence polarization, 2 h; Potency, µM, for inactives: max response, negative = inhibition, usual class: inhibitors; 400,000 tested, 0.93% active; active = well fitted inhibition curve with a large enough effect; inconclusive = small, poorly fitted or top-dose-only effect, or another doubt; inactive = no such curve, though single readings can be large or run the other way; note: series mostly up to about 120 µM
Target sequence (P11473 whole entry, looked up): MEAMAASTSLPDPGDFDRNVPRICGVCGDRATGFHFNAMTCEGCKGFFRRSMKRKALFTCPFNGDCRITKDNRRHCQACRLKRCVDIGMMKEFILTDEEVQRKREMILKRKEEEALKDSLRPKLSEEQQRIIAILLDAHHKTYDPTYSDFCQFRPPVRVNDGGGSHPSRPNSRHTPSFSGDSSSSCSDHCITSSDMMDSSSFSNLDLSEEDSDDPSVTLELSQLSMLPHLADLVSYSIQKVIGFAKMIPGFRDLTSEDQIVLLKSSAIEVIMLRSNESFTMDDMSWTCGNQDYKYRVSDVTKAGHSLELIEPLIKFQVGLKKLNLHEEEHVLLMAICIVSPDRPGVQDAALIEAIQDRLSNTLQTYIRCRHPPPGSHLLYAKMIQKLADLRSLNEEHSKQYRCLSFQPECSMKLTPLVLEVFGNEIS
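Reagent solutions, kept cold and dark, are dispensed first; compounds are then pinned in at 23 nl, plates briefly spun, and incubated 2 h at ambient temperature. Inhibition of VDR–SRC2-3 peptide binding is read by fluorescence polarization.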
Active calls of the source: *; ? = inconclusive; & = joins results of further samples; [ ] = another dose, or the depositor's remark. % is set by controls: 0 for no effect and ±100 for the full control effect; potency is the fitted concentration of half-maximal effect. Some of the compounds tested; count on the stated rates, not on these rows.

SMILES | VDR inhibitor
C[C@H](CO)NC(=O)[C@H](C)[C@H]1C[C@]1(C)[C@H](NC(=O)OCc1ccccc1)c1ccccc1 | -19%
COC(=O)c1c(NC(=O)CSc2ncnc3[nH]ncc23)sc2c1CCC2 | -1%
O=C(Nc1ccc(F)cc1)c1nc(S(=O)(=O)Cc2ccccc2)ncc1Cl | ?
CCOc1cc(CNC(=O)c2ccc3c(c2)nc2n3CCCCC2)ccc1OC | 15%
CC(=O)Nc1ccc(NC(=O)C(C)OC(=O)CSCc2cccc(Cl)c2)cc1 (configuration not stated) | -24%
CC(=O)Nc1c(Cl)cc(Cl)c2c1Cc1cc(Cl)ccc1-2 | 0%
O=C(Nc1nnc(-c2ccco2)o1)c1ccc2ccccc2c1 | 13%
Cc1ccc(NC(=O)N2CC3CCCN3c3ccccc32)cc1C (configuration not stated) | 7%
Cc1cc(C(=O)OCC(=O)N2CCOCC2)ccc1[N+](=O)[O-] | -23%
CC(=O)N1CCSc2ccc(S(=O)(=O)NCCc3ccc(Cl)cc3)cc21 | -16%
CC1CCN(c2ccc(C(=O)N3CCOCC3)cc2[N+](=O)[O-])CC1 | 5%
COc1cccc(NC(=O)CSc2nc3c(oc4ccccc43)c(=O)[nH]2)c1 | -5%
O=C1c2ccccc2NC(c2ccc(Cl)cc2Cl)N1O (configuration not stated) | 19%
Cc1ccc2nc(-c3ccncc3)c(NC3CCCC3)n2c1 | -8%
CC(=O)c1ccccc1NC(=O)COC(=O)/C=C/c1ccc(OC(F)F)cc1 | -5%
Clc1cccc(-n2cc(-c3ccccc3)c3c(NC4CCCC4)ncnc32)c1 | 6%
CCCCCCc1c(C)c2ccc(OCC(=O)N3CCC[C@H]3C(=O)O)c(C)c2oc1=O | -3%
CC(C)n1c(CN(C)c2ccccc2)nc2ccccc21 | -5%
COc1ccc(OCc2cc(C(=O)NC(C)Cc3cnccn3)no2)c(Cl)c1 (configuration not stated) | 19%
COc1ccc(C2=NNC(c3cccnc3)=Nc3ccc(OC)cc32)cc1 | -23%
COCc1cc(C)nc2sc(C(=O)Nc3nccs3)c(N)c12 | 7%
CCCc1cc(=O)[nH]c(SCC(=O)N(CC)c2c(N)n(Cc3ccccc3)c(=O)[nH]c2=O)n1 | 7%
COc1ccccc1N1CCN(C(=O)c2sc3nc(-c4ccccc4)cn3c2C)CC1 | 13%
Nn1c(C2CCCCC2)nc2ccccc2c1=O | 2%
CN1CCN(S(=O)(=O)c2cccc(C(=O)Nc3sccc3C(N)=O)c2)CC1 | 10%
O=C1c2ccccc2C(=O)N1CC1c2ccccc2CCN1C(=O)N1CCOCC1 (configuration not stated) | 2%
CC1CCCCN1CC(=O)NC(c1ccccc1)c1ccccc1 (configuration not stated) | -17%
CC(=O)OC(C(=O)N1CCOCC1)c1c(F)cccc1F (configuration not stated) | 12%
Cc1ccc(C(=O)NNC(=O)C(C)Sc2nc(N)cc(N)n2)cc1 (configuration not stated) | -11%
Cc1nn(Cc2ccc(F)cc2)c(C)c1NC(=O)c1cc(CC(C)C)on1 | -10%

Pulled one by one from the entries so far:
SMILES | VDR inhibitor
O=C1c2ccccc2NC(c2ccc(Cl)cc2Cl)N1O (configuration not stated) | 19%
COc1ccc(OCc2cc(C(=O)NC(C)Cc3cnccn3)no2)c(Cl)c1 (configuration not stated) | 19%

(further entries)
SMILES | VDR inhibitor
C/C(=N/NS(=O)(=O)c1ccc(C)cc1)c1ccc2c(c1)OCO2 | 1%
CCCSc1nc2ccccc2n1CC(=O)O | -11%
O=C(NCCN1C(=O)C2C3C=CC(C3)C2C1=O)Nc1ccccc1 (configuration not stated) | -16%
CC(C)CNC(=O)COC(=O)/C=C/c1ccco1 | 5%
COc1ccc(-c2csc(NC3CCCCC3)n2)c(OC)c1 | -10%
CC[C@@H](C)[C@@H]1CN([C@@H](CN2CCC[C@H]2CN2C(N)=NC[C@@H]2Cc2ccccc2)C(C)C)C(=N)N1CCCC1CCCC1 | -3%
CCN(CC)CCCNC(=O)C(C)n1c2ccccc2c2nc(=O)cc(C)n21 (configuration not stated) | 2%
CC1=NN(C(N)=S)C(=O)C1N=Nc1ccccc1C(=O)O (configuration not stated) | 7%
Cc1cccc(CNc2ccnc(-c3ccccc3C(F)(F)F)n2)c1 | -2%
c1ccc(-c2ccc(CN3CCN(c4ncccn4)CC3)cc2)cc1 | -6%
Cc1ccc(CNC(=S)Nc2cc(C(=O)O)ccc2C)cc1 | -3%
COc1cccc(C(=O)Oc2ccc(/C=N/Nc3ccc(C(=O)O)cc3)cc2OC)c1 | -6%
CCn1c(O)c(N=Nc2ccc(Cl)c(C(=O)O)c2)c2ccccc21 | -14%
CSc1nnc(C)c(=O)n1COC(=O)c1ccc(S(=O)(=O)N2CCCC2)cc1 | -18%
Cc1cccc(C(=O)Nc2ccc(S(=O)(=O)Nc3nc(C)cc(C)n3)cc2)c1 | -2%

The last 6 entries of the section above come first, to join the parts.
SMILES | VDR inhibitor
c1ccc(-c2ccc(CN3CCN(c4ncccn4)CC3)cc2)cc1 | -6%
Cc1ccc(CNC(=S)Nc2cc(C(=O)O)ccc2C)cc1 | -3%
COc1cccc(C(=O)Oc2ccc(/C=N/Nc3ccc(C(=O)O)cc3)cc2OC)c1 | -6%
CCn1c(O)c(N=Nc2ccc(Cl)c(C(=O)O)c2)c2ccccc21 | -14%
CSc1nnc(C)c(=O)n1COC(=O)c1ccc(S(=O)(=O)N2CCCC2)cc1 | -18%
Cc1cccc(C(=O)Nc2ccc(S(=O)(=O)Nc3nc(C)cc(C)n3)cc2)c1 | -2%
CNC(=O)NC(=O)COC(=O)/C=C/c1cccc(Br)c1 | -7%
Cc1[nH]c2ccccc2c1C(=O)CN1CCCC1 | 10%
O=C1c2ccccc2C(=O)C1c1nccc2ccccc12 | -11%
Cc1nnc(N/N=C/C2CC=CCC2)[nH]c1=O (configuration not stated) | 9%
CCCCOc1cccc(/C=C(\C#N)C(=O)NC2CC2)c1 | ?
O=C(Nc1ccc(F)cc1F)Nc1csc2ccccc12 | -22%
COc1ccc(N2CCN(C(=O)CCNC(=O)c3ccc(C(C)(C)C)cc3)CC2)cc1 | -6%
CC1(c2ccccc2)NC(=O)N(CC(=O)NNC(=O)c2ccccc2F)C1=O (configuration not stated) | 5%
CSc1cc(-c2ccc(Cl)cc2)c(C(=O)N2CCCC2)s1 | 4%
CSc1ccccc1C(=O)N1CCC(CCC(=O)NC2CC2)CC1 | 6%
CCOP(=O)(OCC)C(NC(C)=O)C(=O)c1ccccc1 (configuration not stated) | -9%
COc1ccc(-c2cn[nH]c2-c2ccc(OCC(=O)NN)cc2O)cc1OC | 9%
COc1ccc(Cn2c(SCC(=O)Nc3ccc(OC)cc3)nc3ccccc32)cc1 | 4%
CCOC(=O)[C@H]1[C@H]2COc3ccc(Br)cc3[C@@H]2N2C(=O)c3ccc(Cl)cc3NC(=O)[C@@]12C | 0%
CCC(C)[C@H](NC(=O)[C@@H]1Cc2c([nH]c3ccccc23)C2c3ccccc3C(=O)N21)C(=O)N1CCC[C@@H]1C(=O)O (some centres not stated) | -32%
Cn1c(=O)c2c(nc(N3CCCCC3)n2CCNC2=NCCC2)n(C)c1=O | -10%
CCc1cccc(C)c1Nc1c(-c2cccs2)nc2ncccn12 | -6%
Cn1c2c(c(=O)n(C)c1=O)C(c1cccc(O)c1)CC(=O)N2 (configuration not stated) | -15%
COc1ccc(OC)c(NC(=O)COC(=O)CN2C(=O)NC3(CCCC3)C2=O)c1 | -7%
CC1CC(C)CN(C(=O)C(C)N2CCN(S(=O)(=O)c3ccccc3F)CC2)C1 (configuration not stated) | 3%
OC(CN1CCN(c2ccccc2F)CC1)c1ccc(F)cc1 (configuration not stated) | 2%
COc1ccc(OCc2cn(CC(=O)c3ccc(O)cc3)nn2)cc1 | 3%
CCSc1nnc(SCC(=O)NC2CCCCC2)s1 | 1%
CCOC(=O)CNC(=O)CSc1nc(N)cc(N)n1 | -8%
Cc1ccc(NC(=O)CN2C(=O)COc3ccc(S(=O)(=O)N4CCCC4)cc32)cc1C | 3%
CCN(CC)c1ccc(-c2n[nH]c(=S)n2-c2ccccc2C)cc1 | -18%
O=C(c1ccc2c(c1)OCCO2)C1CCN(C(=O)Nc2ccccc2F)CC1 | 6%
O=C(c1ccc2c(c1)N(Cc1ccc(Cl)cc1)C(=O)c1ccccc1S2=O)N1CCC(Cc2ccccc2)CC1 (configuration not stated) | -1%
CC(C)OC(=O)CSc1nnc(-c2ccc(Cl)cc2Cl)n1N | -10%
N[C@H](C(=O)O)c1ccc(C(=O)O)c(O)c1 | 17%&0%
Cc1cccc(NC(=O)C2CCN(c3nccc(C)n3)CC2)c1 | -18%
CCCc1cc(=O)oc2cc(OCC(=O)NCC3CCC(C(=O)O)CC3)ccc12 (configuration not stated) | 5%
COc1ccc(N2CCN(CC(=O)c3ccc(O)c(C)c3O)CC2)cc1 | 2%
CC[n+]1c(C)cc2c(sc3ccccc32)c1C | -20%
C=Cc1ccc(Cn2c(=O)n(-c3cccc(C)c3)c(=O)c3c2c2cc(C)ccc2n3C)cc1 | 17%
NC(=O)c1nsc(C(=O)N(c2cccc(F)c2)C(C(=O)NCC2CCCO2)c2cccs2)c1N (configuration not stated) | 8%
CN1CCN(C(=O)c2ccc3c(c2)N(Cc2ccc(C(F)(F)F)cc2)C(=O)c2ccccc2S3)CC1 | -23%
COc1ccc(C(=O)NC(=S)Nc2cccnc2)cc1Cl | 35%[activator]
CCN(C(=O)CSc1nnc(-c2cc3occc3n2C)n1-c1ccccc1C)c1ccccc1 | 13%
C/C(N)=C(/C#N)C(=O)COC(=O)Cc1coc2ccc3ccccc3c12 | 5%
CCOc1cc(/C=C(/NC(C)=O)C(=O)O)cc(Cl)c1OCc1cccc(Br)c1 | 6%
Cc1cccc(Cl)c1NC(=S)NCCc1ccccn1 | -8%
COc1cccc(Cc2nc3ccccc3nc2SCC(=O)N2CCN(c3ccccc3)CC2)c1 | -17%
CC(=O)c1c(C)[nH]c(C(=O)OCC(=O)Nc2c(C)n(C)n(-c3ccccc3)c2=O)c1C | -12%
CCOC(CCNC(=O)c1cc(-c2cccs2)nc2ccccc12)OCC | 11%
CN(C)c1ccc(P(=O)(OC2CCCCC2)C(O)c2ccncc2)cc1 (configuration not stated) | -9%
CCNC(=O)COC(=O)C1CCN(S(=O)(=O)c2ccc3c(c2)OCCO3)CC1 | -8%
CC1=CCC(Cc2nc3ccccc3o2)C1(C)C (configuration not stated) | 1%
COc1cc(C(=O)NCCNC(=O)c2cc(OC)c(C)c(OC)c2)cc(OC)c1C | -11%
CC1(C)CC(=O)C(C=NCCN2CCOCC2)=C(O)C1 | 0%
COC(=O)/C(C#N)=C/c1c(Oc2cccc(C)c2C)nc2ccccn2c1=O | -7%
COC(=O)c1cc2sccc2n1Cc1ccc(C)cc1 | -5%
CCn1cnc2c1c(=O)n(Cc1cccc(Br)c1)c(=O)n2Cc1ccccc1 | ?
CSc1ncccc1C(=O)OCC(=O)c1cccs1 | 1%
O=[N+]([O-])c1c(Nc2ccccc2O)cc(Cl)c2nonc12 | 45µM*
COC(=O)[C@H](Cc1ccccc1)NC(=O)O[C@@H]1C(=O)c2cc(Br)ccc2O[C@H]1c1ccc2c(c1)OCO2 | 1%
CCN(CC)C(=O)c1sc2c(c1C)c(=O)n(CCc1ccccc1)c(=O)n2Cc1ccc(F)cc1Cl | -3%
CCCOc1ccc(C2C(=O)N(C3CCCCCC3)CC(=O)N2C(C)C)cc1OC (configuration not stated) | 5%
CCCCCC[C@@H]([C@@H](C)O)n1cnc2c(N)ncnc21 | -8%&11%&2%&-20%&6%
CCN(C(=O)c1cccc(S(=O)(=O)N2CCc3ccccc32)c1)C1CCS(=O)(=O)C1 (configuration not stated) | 6%
The list continues.
SMILES | VDR inhibitor
OC(CNC1CCCC1)COc1ccc(-c2ccccc2)cc1 (configuration not stated) | -4%
COc1ccc(C)cc1NC(=O)c1cc2c(s1)CCC2 | -10%
O=C(COC(=O)Cc1ccc2c(c1)OCCO2)Nc1ccc(S(=O)(=O)N2CCCC2)cc1 | 8%
COc1ccc(NC(=O)N2CCN(Cc3nc4ccc(C)cc4o3)CC2)cc1OC | 16%
COc1ccc(S(=O)(=O)CCC(=O)Nc2ccc(OC)cc2OC)cc1 | 5%
CC(=O)c1ccc(NC(=O)CSc2nnc(Cn3cnc4ccccc43)o2)cc1 | -14%
COCC(=O)Nc1ccc(OC)c(Cl)c1 | -10%
CCOc1ccc(C(=O)N(CC)CC(=O)Nc2ccc3c(c2)OCCO3)cc1 | 11%
COc1cc(F)c(C2=CC(=O)C[C@H](c3ccc4c(c3)OCO4)C2)cc1F | -15%
COc1ccc(C(=O)NC2CCCc3c2cnn3-c2ccccc2F)o1 (configuration not stated) | -14%
Cc1ccnc(NC(=O)Cc2ccc([N+](=O)[O-])cc2)c1 | 2%
CN1CCc2c(c3ccccc3n2Cc2ccccc2)C1 | 12%&-12%&0%&-2%
CC(=O)Oc1cccc(N2C(=O)C3C4C=CC(CC4)C3C2=O)c1 (configuration not stated) | -3%
CC(=O)c1c(Cl)nc2cccc3c2c1-c1ccccc1C3=O | -11%
COCCNc1oc(COc2cccc(C)c2)nc1C#N | -6%
CCOC(=O)c1c(C)[nH]c(C)c1C(=O)COC(=O)[C@@H]1CCCN1S(=O)(=O)c1ccc(Cl)cc1 | 15%
CCN(CC(=O)Nc1c(F)cccc1F)C(=O)CCNS(=O)(=O)c1ccccc1C(F)(F)F | 2%
CCC1(CC)NC(=O)N(CC(=O)NCc2ccc3c(c2)OCO3)C1=O | 6%

Ordered by formula weight (low to high): part of the list above.
SMILES | VDR inhibitor
CN1CCc2c(c3ccccc3n2Cc2ccccc2)C1 | 12%&-12%&0%&-2%
COc1cc(F)c(C2=CC(=O)C[C@H](c3ccc4c(c3)OCO4)C2)cc1F | -15%
O=C(COC(=O)Cc1ccc2c(c1)OCCO2)Nc1ccc(S(=O)(=O)N2CCCC2)cc1 | 8%
